High-throughput results from PubChem.
ClpP mod – qHTS Assay for Activators of ClpP. purified B. subtilis ClpP, FRET peptide cleavage, 20 min. ATP-dependent Clp protease proteolytic subunit (Bacillus subtilis (strain 168)), P80244. hit rate 1.9% among 340,000. AID 651965, 2013. Potency, µM (doses to about 57.5 µM), for the others: at the highest dose activity change, negative = active; active = well fitted falling curve with a large enough effect; inconclusive = small, poorly fitted or top-dose-only effect; inactive = no such curve, though single readings can be large or run the other way; note: potency is the fitted concentration of half-maximal effect; the source files actives as falling curves though it sought activators and does not explain the sign; nearly all actives have a fitted effect of over 65% in size; many hits overshoot -100%
Target sequence (P80244 whole entry, looked up): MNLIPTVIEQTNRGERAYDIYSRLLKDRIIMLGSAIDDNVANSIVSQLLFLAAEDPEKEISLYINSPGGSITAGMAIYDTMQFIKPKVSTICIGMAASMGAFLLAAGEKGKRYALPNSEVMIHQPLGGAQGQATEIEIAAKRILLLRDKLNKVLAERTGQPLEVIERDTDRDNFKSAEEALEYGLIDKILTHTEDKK
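Buffer: 100 mM Tris/HCl pH8, 100 mM KCl, 0.05% low protease BSA, 2.5% glycerol, 0.01% Tween-20. ClpP 10 microg/mL final; 20 min RT; delta FRET normalized to ADEP and DMSO controls.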
gsp ag – qHTS for Agonist of gsp, the Etiologic Mutation Responsible for Fibrous Dysplasia/McCune-Albright Syndrome: qHTS; hit rate 0.13% among 340,000; Potency, µM (series often up to 76.9 µM), without a hit: at the highest dose activation (cAMP increase), actives largely listed as activators; gsp mutant cells, cAMP HTRF, 30 min; control for the full effect not named in the record; active = well fitted activation curve with a large enough effect; inconclusive = small, poorly fitted or top-dose-only effect, or another doubt; inactive = no such curve, though single readings can be large or run the other way; cell line not stated here;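 note: phosphodiesterase inhibitor Ro 20-1724 added with compounds to block cAMP breakdown; potency is the fitted concentration of half-maximal effect; nearly all actives have a fitted effect of over 60% in size; about a fifth of the inactives were tested at one dose only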
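Cells in DMEM/10% FBS with G418 were pretreated with compounds in DMSO plus […] (300 uM stock) for 30 min at 37C. cAMP was measured by HTRF (cAMP-d2 plus anti-cAMP antibody-K) after 30 min at room temperature.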
Sfp PPTase inh – qHTS Assay for Inhibitors of Bacillus subtilis Sfp phosphopantetheinyl transferase (PPTase). 4'-phosphopantetheinyl transferase ffp (Bacillus subtilis), Q9F4F7. Biochemical Sfp PPTase activity, qHTS. Potency, µM, for the others: max response, negative = inhibition, actives largely listed as inhibitors. hit rate 3.5% among 310,000. AID 1490, 2009; active = well fitted inhibition curve with a large enough effect; inconclusive = small, poorly fitted or top-dose-only effect, or another doubt; inactive = no such curve, though single readings can be large or run the other way;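 note: the enzyme is Sfp with the accession as filed and its product quenches rhodamine fluorescence; potency is the fitted concentration of half-maximal effect; 0% = enzyme reaction without inhibitor and -100% = no enzyme wells; top concentration of the series not given in the record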
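Reaction rates are the 30-min fluorescence difference (ex 525, em 598 nm) in wells containing 15 nM Sfp, 5 uM rhodamine-CoA and 12.5 uM BHQ-2-YbbR at pH 7.6 with 10 mM MgCl2.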
TRPV1 potentiator – HTS Assay for Compounds that Act as Potentiators of the Vanilloid Receptor 1. hit rate 0.02% among 320,000. potentiation, % at 8.33 µM. TRPV1-expressing cells, Fluo-8 calcium influx, capsaicin EC20 potentiation; host cell line not named in the record; control for the full effect not named in the record; active means potentiation above 80%; inconclusive means 30% to 80%; inactive means below 30%; note: 0% is about no effect
Target sequence (Q8NER1 whole entry, looked up): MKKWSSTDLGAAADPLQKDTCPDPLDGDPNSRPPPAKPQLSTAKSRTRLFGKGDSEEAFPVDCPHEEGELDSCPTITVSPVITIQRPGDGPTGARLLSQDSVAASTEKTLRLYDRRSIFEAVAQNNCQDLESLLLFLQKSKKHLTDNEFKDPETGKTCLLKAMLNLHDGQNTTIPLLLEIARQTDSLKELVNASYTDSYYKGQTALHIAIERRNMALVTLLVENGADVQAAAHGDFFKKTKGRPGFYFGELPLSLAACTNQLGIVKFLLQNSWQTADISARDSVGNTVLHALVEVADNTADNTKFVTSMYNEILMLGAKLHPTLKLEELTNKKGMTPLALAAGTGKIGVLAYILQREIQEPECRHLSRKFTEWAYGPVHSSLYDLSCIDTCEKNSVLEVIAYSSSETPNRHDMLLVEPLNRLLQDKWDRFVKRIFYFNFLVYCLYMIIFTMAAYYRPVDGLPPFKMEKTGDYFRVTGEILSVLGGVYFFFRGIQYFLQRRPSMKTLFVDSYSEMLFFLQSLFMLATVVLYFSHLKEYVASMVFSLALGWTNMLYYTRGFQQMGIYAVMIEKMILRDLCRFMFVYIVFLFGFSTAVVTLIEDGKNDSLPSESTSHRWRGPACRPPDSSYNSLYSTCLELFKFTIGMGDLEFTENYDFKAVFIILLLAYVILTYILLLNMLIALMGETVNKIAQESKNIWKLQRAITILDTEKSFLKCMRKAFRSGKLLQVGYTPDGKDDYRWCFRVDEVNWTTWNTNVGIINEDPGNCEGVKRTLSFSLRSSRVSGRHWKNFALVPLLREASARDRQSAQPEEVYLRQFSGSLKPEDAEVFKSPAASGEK
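TRPV1-expressing cells were cultured overnight at 35.5C and loaded with Fluo-8 calcium dye for 40 to 90 min at room temperature. After a 10 s baseline, compound was added and calcium influx was read kinetically for 3 min (ex 480/em 520 nm).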
Menin-MLL FL inh – qHTS Assay for Inhibitors Targeting the Menin-MLL Interaction in MLL Related Leukemias: Competition With Fluorescein Labeled MLL-derived Peptide; Fluorescence polarization, fluorescein-MLL peptide displacement from menin; FP activity change, % at 61.4 µM; 290,000 tested, under 10 active; AID 1766, 2009; inconclusive = falling polarisation curve, or a change in total fluorescence; inactive = total fluorescence flat and polarisation flat or rising; no compound was filed as active; the % refers to the polarisation; negative = inhibition;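 note: % of control where 0% means no effect; inhibitors lower the polarisation; unlabelled MLL peptide was the positive control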
D2 PAM – Beta-Arrestin HTS for Positive Allosteric Modulators of the Human D2 Dopamine Receptor: Potentiators; potentiation, % (no concentration beside the values); hit rate 0.23% among 360,000; DiscoveRx D2 beta-arrestin cells, luminescence, 90 min; 100% = 57 uM dopamine signal; D(2) dopamine receptor (Homo sapiens), P14416; active = potentiation of 50% or more; inconclusive = 30% to 50%; inactive = 30% or less;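 note: compound concentration not given in the record; tested on top of an EC20 dose of dopamine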
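PathHunter D2 cells, attached overnight at 37 deg C, received compound in DMSO plus dopamine at EC20 (50 nM final) for 90 min at 37 deg C. Beta-arrestin recruitment was read as luminescence after 1 h with detection reagent at ambient temperature.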
gsp antagonist – qHTS for Antagonists of gsp, the Etiologic Mutation Responsible for Fibrous Dysplasia/McCune-Albright Syndrome: qHTS | gsp-mutant cells, cAMP HTRF, 30 min; control for the full effect not named in the record | hit rate 0.4% among 340,000 | Potency, µM (highest dose often 76.9 µM), without a hit: at the top dose activity change, negative = inhibition, actives largely listed as inhibitors | AID 624288, 2012; active = falling curve of any shape with a large fitted effect; inconclusive = falling curve, mostly with a smaller effect; inactive = flat or rising curve; cell line not stated here;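 note: intracellular cAMP measured with PDE inhibitor Ro 20-1724 present during compound exposure; potency is the fitted concentration of half-maximal effect; % is set by controls: 0 for no effect and ±100 for the full control effect; nearly all actives have a fitted effect of over 65% in size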
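Cells, 2000/well, grown 16–24 h in DMEM 10% FBS with 0.5 mg/ml G418, then compounds plus […] (300 uM addition stock), 30 min at 37C. cAMP read by HTRF (cAMP-d2 and anti-cAMP antibody-K in lysis buffer) after 30 min RT.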
An asterisk follows results filed as active; ? = inconclusive; . = no result given; [ ] = remark or other dose.

Values run as follows: gsp ag	gsp antagonist	TRPV1 potentiator	Sfp PPTase inh	D2 PAM	Menin-MLL FL inh	ClpP mod
COc1ccc2c(c1)C(=O)N1[C@H]3c4cc(C)ccc4OC[C@@H]3[C@H](c3ccccc3)[C@]1(C)C(=O)N2
  10%	-16%	13	.	-14	.	?
CCOC(=O)C1=C(C)N=c2s/c(=C/c3ccc(OCC(=O)O)cc3)c(=O)n2C1c1ccc(SC)cc1 (stereo unspecified)
  .	.	-3	-10%	.	?	.
COC(=O)C1=C(CSCc2ccccc2)NC(=O)NC1c1cc(C)ccc1C (stereo unspecified)
  5%	0%	-5	32%[activator]	-3	3.1	1.5%
C=CC[n+]1ccn(-c2nc3ccccc3nc2[N-]S(=O)(=O)c2cccs2)c1
  5%[15.4 µM]	15%	-12	17%	-6	-5.2	.
O=C(CN(c1ccccc1)S(=O)(=O)c1ccccc1)NCCSc1nc2ccccc2s1
  6%	-6%	-1	9%	11	1.1	-3.8%
CCN(CC)S(=O)(=O)c1ccc(/C=C/C(=O)NC2CCCCC2)cc1
  -5%[15.4 µM]	-21%	-16	3%	-4	-5.5	.
C#CCOCCOCCOCCNc1nc(N2CCN(C(=O)Cn3cc(CCO)nn3)CC2)nc(N2CCN(C(=O)Cn3cc(CCCN=C(N)N)nn3)CC2)n1
  .	2%	.	.	-9	.	0.8%
COC(=O)c1ccc(-n2nnnc2SCC(=O)Nc2ccccc2C(=O)OC)cc1
  4%	-13%	30	-10%	13	-0.9	-20%
CC(=O)Nc1ccc(C(=O)N2CCc3cc4c(cc3C2C)OCCCO4)cc1 (stereo unspecified)
  .	-3%	4	3%	-11	2.8	-7.9%
CC1(c2ccc(Cl)cc2)NC(=O)N(CC(=O)N2CCN(S(=O)(=O)c3ccccc3)CC2)C1=O (stereo unspecified)
  -25%	1%	-20	.	8	.	-0.4%
O=C(O)C1=C[C@@H](c2coc3ccccc3c2=O)C[C@@H](OCc2ccc(CO)cc2)O1
  .	-8%	-2	9%	-8	6.2	6.0%
Cc1[nH]c(=S)[nH]c(=O)c1CCC1OCCO1
  -16%	0%	?	79µM*	-20	-7.6	-1.9%
O=C(Cc1ccccn1)c1ccc(F)cc1
  17%	-6%	5	.	-16	.	-2.6%
O=C(Cn1cc(C(F)(F)F)ccc1=O)NCC1CCCO1 (stereo unspecified)
  -28%	-6%	-6	.	0	.	-0.4%
COc1ccc(OC)c(CNC(=O)c2coc(=O)c3ccccc23)c1
  -3%[15.4 µM]	2%	-2	15%	1	2.4	.
CCN1C(=O)[C@H]2[C@@H](c3ccc(C(F)(F)F)cc3)N[C@]3(CCCN(CC4CCCCC4)C3=O)[C@H]2C1=O
  9%	.	.	.	-3	.	-1.0%
CCC(=O)c1ccc(N2CCN(C(=O)COc3ccc(F)cc3)CC2)c(F)c1
  28%	-27%	-18	-9%	4	3.3	-2.0%
CC(=O)N/C(=C\c1ccccc1)C(=O)OCC(=O)NC(=O)c1ccccc1
  -12%[15.4 µM]	-1%	0	.	-3	.	.
CCOC(=O)Nc1ccc2c(c1)C(=NNC(=S)NC)c1ccccc1-2
  -31%[inhibitor]	.	.	.	-23	.	1.4%
Fc1cc2nccnc2cc1N1CCSCC1
  10%	10%	-47	13%	-9	-0.2	-1.3%
CCCCOC(=O)n1c(SCC(=O)N(CC)CC)nc2ccccc21
  ?	-11%	-16	10%	-15	1.3	1.9%
CC1=C(C(=O)Nc2ccccc2)C(c2ccc(C)o2)n2c(s/c(=C\c3ccco3)c2=O)=N1 (stereo unspecified)
  -8%	-14%	-7	50µM*	14	?	2.0%
COc1ccc(C(=O)Nc2ccc(C)cc2C(=O)c2ccccc2)cc1
  -5%	-12%	-5	-23%	-22	1.0	-1.8%
CC1(C)CC(=O)c2cn3c(nc2C1)nc1ccccc13
  ?	14%	-3	5%	7	-1.4	-19%
CC(C)C(NC(=O)c1c(F)cccc1F)C(=O)N1CCN(c2ccccc2F)CC1 (stereo unspecified)
  -5%[15.4 µM]	7%	6	13%	1	.	.
COc1cc(NC(=O)CSc2nnc(-c3ccncc3)n2C2CCCCC2)ccc1NC(=O)c1ccco1
  -33%[inhibitor]	-11%	-3	1%	0	7.7	-2.7%
CCCOc1ccc(-c2nc(C#N)c(N3CCc4ccccc4C3)o2)cc1
  -8%	-7%	0	5%	-6	8.4	16µM*
Cc1ccc(CC(=O)NCc2ccc(F)cc2)cc1
  -3%[15.4 µM]	-7%	-9	8%	-8	-1.0	.
CC1(C)Cc2c(sc3c2C(=O)N(c2ccccc2)C2=NCCCN23)CO1
  -24%	2%	2	-1%	-2	-1.0	-28%
CC(O)c1cccc(NC(=O)CCCc2ccccc2)c1 (stereo unspecified)
  -33%[inhibitor]	2%	-3	15%	-1	-8.1	-0.3%
O=C(CCCN1CCC(NC(=O)c2ccccc2)CC1)c1ccc(Cl)cc1
  -14%	12%	-11	-9%	-3	-1.0	2.0%
O=C(c1ccccc1)N1CCN(CC#Cc2ccccc2)CC1
  -17%	0%	-10	-6%	-7	0.6	-4.9%
O=C(Nc1ccc(Br)cc1)C(c1ccccc1)c1ccccc1
  -39%[inhibitor]	1%	-8	10%	-1	0.0	-0.7%
Cc1c(C)c2ccc(OCC(=O)Nc3nccs3)cc2oc1=O
  -12%	-11%	-3	9%	3	.	4.6%
Cc1ccc(C(=O)N2CC(=O)Nc3ccc(C)cc3C2c2ccccc2)cc1 (stereo unspecified)
  -25%	-1%	-12	-2%	-3	-2.1	.
O=C1CN(C(=O)COc2ccc(Cl)cc2Cl)c2ccccc2N1
  18%[15.4 µM]	-15%	2	20%	3	.	.
CC1Oc2ccccc2N(CC(=O)c2ccc(F)cc2)C1=O (stereo unspecified)
  3%[15.4 µM]	-7%	-28	5%	-6	-2.0	.
Cc1ccc([N+](=O)[O-])c(OCCN2CCCCCC2)c1
  ?	12%	8	?	-3	4.9	0.0%
COC(=O)[C@H](Cc1ccccc1)NC(=O)N1CCCCC1
  1%[15.4 µM]	6%	-6	-5%	-4	-6.6	.
O=C(COc1ccccc1)NC1CCCN(Cc2ccccc2F)C1 (stereo unspecified)
  -43%[inhibitor]	8%	-23	9%	-14	.	-1.4%
O=C(Nc1ccccc1N1CCCC1)C1CCN(S(=O)(=O)c2ccccc2C(F)(F)F)CC1
  -46%[inhibitor]	-7%	-7	.	27	.	-5.6%
C[C@H](NS(=O)(=O)c1ccccc1F)C(=O)OCC(=O)Nc1ccc2c(c1)OCCO2
  22%[15.4 µM]	-18%	.	.	8	.	0.2%
Cc1ccc(NS(=O)(=O)c2ccc(-n3cccn3)cc2)cc1C
  -14%	-8%	2	8%	3	.	-0.4%
COC(=O)c1c(NC(=O)CS(=O)(=O)c2ccccc2)sc(C)c1C
  -5%	1%	-20	.	8	.	-19%
Cc1cccnc1NC(=O)C1CC(=O)N(c2ccc3c(c2)OCCO3)C1 (stereo unspecified)
  10%[15.4 µM]	7%	1	.	2	.	-3.6%
O=C(NNC1=Nc2ccccc2SC1)c1cccc([N+](=O)[O-])c1
  6%[15.4 µM]	10%	-4	15%	-14	1.1	.
COc1cc(C2SC(C)C(=O)N2CCc2ccccc2)cc(OC)c1OC (stereo unspecified)
  -14%	-7%	0	-6%	3	1.1	-0.3%
Cc1ccc(Nc2ncc3c(n2)CC(C)CC3=O)c(C)c1 (stereo unspecified)
  -22%	1%	-18	10%	-4	-0.1	-1.1%
CCC(C)Sc1cccc(-c2nc3cnccn3c2NC2CCCCC2)c1 (stereo unspecified)
  .	7%	.	.	-2	.	?
CCO[C@H]1OC(C(=O)NCc2nc3ccccc3[nH]2)=C[C@@H](c2ccc(C(F)(F)F)cc2)[C@@H]1CCCO
  18%	-21%	4	12%	-11	0.9	2.5%

The listing continues:
Values run as follows: gsp ag	gsp antagonist	TRPV1 potentiator	Sfp PPTase inh	D2 PAM	Menin-MLL FL inh	ClpP mod
CCOc1cc(/C=N/Nc2nc(-c3cccs3)c(NC(C)=O)s2)ccc1O
  5%	-13%	-10	-28%	17	7.1	.
Cc1ccc(NC(=S)NN(C)c2nc(C)cnc2C)cc1
  -1%	4%	-19	-13%	-10	2.7	-0.5%
CNc1nnc(CSc2nc(C)cc(C)n2)s1
  3%	1%	0	16%	-2	4.3	-1.7%
O=C(/C=C/c1ccc([N+](=O)[O-])cc1)Oc1ccc(/C=N/NC(=O)c2ccncc2)cc1
  ?	4%	-1	4%	0	.	-0.2%
O=C(NCC12CC3CC(CC(C3)C1)C2)c1nn2c(c1Cl)NC(c1ccco1)CC2C(F)(F)F (stereo unspecified)
  -23%	5%	4	-20%	-1	?	0.1%
COc1ccc(N2CCN(C(=O)c3ccc(Br)o3)CC2)cc1
  6%	12%	-5	9%	-1	.	1.6%
Cc1ccc(C(=O)/C=C/c2c[nH]c3ccccc23)cc1
  -8%	-14%	-13	-14%	-10	?	2.6%
NNc1nccc(Nc2ccccc2C(=O)O)n1
  40%	-11%	-36	50µM*	-2	6.1	-11%
Cn1c(C(=O)O)c(C=O)c2ccccc21
  20%	10%	-10	14%	-10	-0.2	-1.0%
CN(c1cccc(NC(=O)CN(c2cccc(Cl)c2)S(=O)(=O)c2ccc(Cl)cc2)c1)S(C)(=O)=O
  -5%	-30%	-7	8%	-18	2.6	-3.4%
Cc1cc(C(=O)O)c2ccccc2n1
  -19%	9%	-8	-3%	-7	4.9	1.1%
Cn1c(SCC(=O)N2CCCC2)nnc1-c1cccs1
  2%	8%	3	5%	-5	-7.0	.
CCN(CC)S(=O)(=O)c1cccc(C(=O)N/N=C(\C)c2ccc(O)cc2O)c1
  8%[15.4 µM]	2%	0	16%	-41	?	1.0%
